# StopGo FLuc = lowers the firefly signal of an FMDV 2A StopGo reporter; HEK cells with a luciferase reporter of 2A StopGo recoding; Potency, µM (series often up to 57.5 µM), for the others: at the highest dose signal change, negative = less light; 120,000 tested, 0.23% active; AID 1745856; active = well fitted falling curve with a large enough effect; inconclusive = small, poorly fitted or top-dose-only effect; inactive = no such curve, though single readings can be large or run the other way; note: nearly all actives have a fitted effect of over 60% in size; overnight with compound
# 2A Renilla = lowers the Renilla signal of an FMDV 2A StopGo reporter; HEK cells with a luciferase reporter of 2A StopGo recoding; Potency, µM (titrated, usually from 57.5 µM), inactives show at the highest dose signal change, negative = less light; 120,000 tested, 0.32% active; AID 1745857; active means well fitted falling curve with a large enough effect; inconclusive means small, poorly fitted or top-dose-only effect; inactive means no such curve, though single readings can be large or run the other way; note: nearly all actives have a fitted effect of over 55% in size; overnight with compound
# Numbers without * were called inactive; u = inconclusive; & = joins results of further samples; [ ] = remark or other dose. % is set by controls: 0 for no effect and ±100 for the full control effect; potency is the fitted concentration of half-maximal effect. Not all compounds are listed, so the mix of outcomes need not match the whole.
canonical_smiles	StopGo FLuc	2A Renilla
CC(C)c1nnc2ccc(N3CCC(C(=O)Nc4ccccc4N4CCCC4)CC3)nn12	5%	5%
CCc1nc2onc(C)c2c(=O)n1CC(=O)O	-21%	-13%
Cc1ccc(NS(=O)(=O)c2cccc(C(=O)OCC(=O)NCc3ccco3)c2)c(C)c1	0%	13%
CN(Cc1ccc(CN(C)Cc2ccc3c(c2)OCO3)cc1)Cc1ccc2c(c1)OCO2	-13%	-5%
COc1ccc(C2=NCC(=O)N(CC(=O)Nc3ccc(F)cc3F)c3sc4c(c32)CCC4)cc1	-24%	202%[activator]
CC1CCC(NC(=O)CCC2CCCO2)CC1 (stereo unspecified)	0%	15%
CCCCCCCCCCCCSCCC(=O)O	10%	9%
Cc1nn(-c2ccc(N3CCCCC3)nn2)c(C)c1CCC(=O)NCc1ccc(OC(C)C)cc1	-13%	37%[activator]
CC(=O)c1ccc(NC(=O)CSc2nc(C3CCCC3)nc3c2c(=O)n(C)c(=O)n3C)cc1	-12%	-13%
CCCCCOC(=O)CSc1ncnc2sc3c(c12)CCC(C)C3 (stereo unspecified)	0%	-10%
COc1cccc(CCC(=O)Nc2nc(C(C)=O)cs2)c1OC	123%[activator]	13%
O=S1(=O)CCN2C(c3ccc(Cl)cc3)=CSC2=N1	59%[activator]	20%
Cc1cc(C)nc(NC(N)=NCc2cccnc2)n1	71%&0%[activator]	41%&-1%[activator]
CCN(CC)CCNC(=O)CCn1c(=O)c2cccn2c2cccnc21	-19%	-23%
CC(NC(=O)CN1CSCC1=O)c1cccc(Cl)c1 (stereo unspecified)	0%	0%
O=C(Nc1ccc(Br)cc1)c1cccc(S(=O)(=O)N2CCc3ccccc32)c1	32µM*	4µM*
NC(=O)c1ccccc1NCC1CC1(Cl)Cl (stereo unspecified)	0%	22%
O=C(NCCc1cccc2cccnc12)c1cc(-c2ccccn2)nc2ccccc12	0%	31%[activator]
CC(=O)Nc1ccc(NCC(=O)NCc2ccc(Cl)cc2)c(C(F)(F)F)c1	-11%	-4%
O=C(CSCc1cnn(-c2ccccc2)c1-n1cccc1)NCc1ccccc1Br	-21%	57%[activator]
CNCCC(F)(F)F	15%	5%
COc1ccc(-c2nc(CC(=O)NC3CCN(Cc4ccccc4)C3)cs2)cc1OC (stereo unspecified)	-2%	-2%
Cc1nc2scc(C)n2c1/C=C/c1cc(C(=O)O)c2ccccc2n1	-7%	-9%
CN(CCCC#N)Cc1cccc(C#N)c1	0%	6%
Cc1ccccc1NC(=O)CSc1nc(=O)n(CCN2CCOCC2)c2c1CCC2	-20%	-3%
CC(Cc1ccco1)NCc1cc2ccccc2o1 (stereo unspecified)	57%[activator]	-12%
Cc1ccc(Nc2c(-c3ccc(C)cc3)nc3cnccn23)cc1	7%	6%
CC(=O)N1CCc2cc(Br)cc(S(=O)(=O)CCC(=O)N3CCN(c4cccc(C)c4C)CC3)c21	-12%	4%
CCCCCn1c(=O)[nH]c2cc(C(=O)N3CCN(c4cc(Cl)ccc4C)CC3)ccc2c1=O	-11%	-8%
Cc1ccc(-n2ccnc(NCc3cccs3)c2=O)cc1C	77%[activator]	34%[activator]

# A stretch from further up, for reference:
canonical_smiles	StopGo FLuc	2A Renilla
CNCCC(F)(F)F	15%	5%
COc1ccc(-c2nc(CC(=O)NC3CCN(Cc4ccccc4)C3)cs2)cc1OC (stereo unspecified)	-2%	-2%
Cc1nc2scc(C)n2c1/C=C/c1cc(C(=O)O)c2ccccc2n1	-7%	-9%
CN(CCCC#N)Cc1cccc(C#N)c1	0%	6%

# Further compounds:
canonical_smiles	StopGo FLuc	2A Renilla
CC(OC(=O)CC12CC3CC(CC(Br)(C3)C1)C2)C(=O)Nc1ccc([N+](=O)[O-])cc1Cl (stereo unspecified)	17%	2%
CCCCNC(=O)CSc1nc2cc3c(cc2c(=O)n1CCCC(=O)NCc1ccc(OC)cc1)OCO3	-15%	-9%
COCCn1c(C)cc(O)c(C(c2ccccc2)N2CCN(C)CC2)c1=O (stereo unspecified)	-10%	-5%
C=C(C)[C@H]1Cc2c(ccc3c2O[C@@H]2COc4cc(OC)c(OC)cc4[C@@H]2C3=O)O1	-63%	-58%
Cc1ccc(NS(=O)(=O)c2cc(-c3cnc(C4CC4)o3)ccc2C)cc1Cl	78%[activator]	438%[activator]
O=C(c1cc2ccccc2oc1=O)N1CCSC1c1ccccc1Cl (stereo unspecified)	-10%	12%
CCc1nn2c(=O)cc(CNc3ccccc3C(=O)NC3CC3)nc2s1	16%	5%
Cc1cc(C)c(NC(=O)c2ccc3ccccc3n2)c(C)c1	12%	-7%
Cc1ccc(-c2ccc(=O)n(CC(=O)Nc3ccc(F)c(Cl)c3)n2)cc1C	-9%	2%
O=C(NCc1ccc(F)cc1)C1CCN(C(=O)c2cnn(-c3ccccc3)c2-n2cccc2)CC1	-7%	6%
CC(C)Cn1nc(C(=O)Nc2nc3c(s2)CN(C)CC3)c2ccccc2c1=O	14%	18%
CC1CCN(c2ccc(NC(=O)Cn3c(-c4cscn4)nc4ccccc43)cc2)CC1	-6%	-9%
Cc1ccc(-c2cc(C(=O)O)c3cccc(C)c3n2)cc1C	77%[activator]	-5%[1.06 µM]
CCOC(=O)C1CCC(CNC(=O)N2CCCC2c2ccc(F)cc2)CC1 (stereo unspecified)	0%	5%
Cc1ccccc1-c1noc(-c2ccc(NCC3CCCO3)c([N+](=O)[O-])c2)n1 (stereo unspecified)	26%	-4%
Cc1cc(NC(=O)C2CCN(S(=O)(=O)c3ccc(Br)s3)CC2)ccc1Br	-7%	-9%
CCCCCCCC1CCC(c2ccc(-c3ccc(CCCC)cn3)cc2)CC1 (stereo unspecified)	1%	1%
Cc1cc2c(c(=O)n1Cc1ccco1)C(C(C)C)C(C#N)=C(N)O2 (stereo unspecified)	-4%	6%
CCc1ccc(NC(=O)c2ccc3c(c2)nnn3CC)cc1	171%[activator]	-8%
COc1cccc(C(=O)/C(=C/c2cccs2)c2nc3ccccc3o2)c1	0%	2%
Cc1cccc(NS(=O)(=O)c2ccc3oc(=O)c4ncn(C)c4c3c2)c1C	-19%	-19%
COc1cccc(NC(=O)C(=O)NCC(c2ccc3c(c2)OCO3)N2CCN(C)CC2)c1 (stereo unspecified)	91%[activator]	-9%
COc1ccc(/C=N/OC(=O)c2ccc(C(F)(F)F)cc2)cc1OCc1ccccc1	15%	22%
COc1cccc(CNC(=O)CCn2nc(-c3ccccc3OC)c3c(C)cc(C)nc32)c1	21%	39%[activator]
COc1ccccc1CNS(=O)(=O)c1ccc2c(c1)CC(C)N2C(=O)C1CCC1 (stereo unspecified)	u	u
CCN(CC)CCOC(=O)c1ccc(NC(=O)c2cc3c(s2)-c2ccccc2OC3)cc1	67%[activator]	10%
O=C(CSc1nnnn1-c1ccccc1)Nc1cccc(C(=O)O)c1	3%	-6%
CC(=O)c1ccc(N2CCN(C(=O)Nc3cccc(F)c3)CC2)cc1	51%[activator]	4%
Cc1ccc(OCC(=O)NCC2(N3CCN(C)CC3)CCCCC2)cc1C	-12%	1%
CN(CCOc1cccc(Cl)c1)Cc1cc(=O)oc2cc(O)ccc12	-3%	4%
Cc1ccc(C)c(N/C=C/C(=O)c2ccc(Cl)cc2Cl)c1	39%[activator]	4%
CCCCCCNc1nc2ccccc2nc1NS(=O)(=O)c1ccc(OC)cc1	1%	2%
Cc1ccc(NCc2nnc3n2CCCCC3)cc1Cl	-6%	-10%
O=C(C1CCCN(S(=O)(=O)c2ccc(Br)s2)C1)N1CCN(c2ccc(F)cc2)CC1 (stereo unspecified)	-1%	-13%
Nc1c(C(=O)Nc2ccc(OC(F)(F)F)cc2)sc2nc3c(cc12)N1CCC3CC1	-13%	-3%
COc1ccc(N2CCN(C(=O)CCS(=O)(=O)c3cc4c(cc3Cl)NC(=O)CO4)CC2)cc1	4%	-2%
COC(=O)CN(CC(=O)NC(=O)NCC(F)(F)F)Cc1ccccc1	-5%	6%
Cc1cc2oc(=O)cc(CN3CCN(S(=O)(=O)c4ccc5c(c4)OCCO5)CC3)c2cc1C	-1%	8%
O=C(O)c1csc(-c2cnccn2)n1	14%	11%
c1cc(CNC23CC4CC(CC(C4)C2)C3)ccn1	0%	-11%

# One compound at a time, as listed above:
# `Cc1ccccc1NC(=O)CSc1nc(=O)n(CCN2CCOCC2)c2c1CCC2` reads StopGo FLuc: -20%; 2A Renilla: -3%
# `Cc1ccccc1-c1noc(-c2ccc(NCC3CCCO3)c([N+](=O)[O-])c2)n1` (stereo unspecified) reads StopGo FLuc: 26%; 2A Renilla: -4%

# (more compounds)
canonical_smiles	StopGo FLuc	2A Renilla
Cc1ccc(Cc2nc3ccccc3nc2SCC(=O)Nc2cccc(C(F)(F)F)c2)cc1	-15%	-2%
COc1ccccc1CNC(=O)c1ccc(CS(=O)(=O)c2ccccc2C)o1	-14%	10%
CS(=O)(=O)N(Cc1csc(-c2cccs2)n1)C1CCN(C(=O)c2ccccc2Cl)CC1	-20%	56%[activator]
O=C(c1ccccc1)N(Cc1ccco1)c1ccccn1	8%	4%
CS(=O)(=O)Nc1ccc(C2=NN(S(=O)(=O)c3ccccc3)C(c3ccccc3)C2)cc1 (stereo unspecified)	4%	288%[activator]
COC(=O)c1c(C)sc(-c2c(-c3cccc(Cl)c3)[nH]c3c2c(=O)[nH]c(=O)n3C)c1O	-6%	6%
O=C1CC(c2ccccc2Br)c2c(c3ccccc3oc2=O)O1 (stereo unspecified)	-4%	6%
COC(=O)c1sc(N2C(=O)c3oc4ccc(C)cc4c(=O)c3C2c2ccc(OC)cc2)nc1C (stereo unspecified)	-15%	-2%
CCOc1cc(C(=O)Nc2ccccc2O)ccc1OC(F)F	-9%	u
Cc1ccc(S(=O)(=O)N(C)C)cc1C(=O)NC(c1ccc2c(c1)OCCO2)C(C)C (stereo unspecified)	-9%	11%
O=S(=O)(c1ccc2oc(Nc3cc(F)cc(F)c3)nc2c1)N1CCCCC1	9%	19%
O=C(Cn1c(=O)c2c(ncn2Cc2ccccc2)n(Cc2ccccc2)c1=O)N1CCNC1=O	-6%	-17%
CCn1c2c(c(=O)n3ncc(C(=O)Nc4cc(Cl)ccc4C)c13)CN(Cc1ccc(OC)cc1)CC2	-27%	-21%
COCc1nn2c(c1-c1ccccc1)NC(=O)CC2C(=O)Nc1ccccc1OC (stereo unspecified)	-3%	-7%
CC(C)(C)c1ccc(O)c(NC(=O)CC(C(=O)O)c2ccc(F)cc2)c1 (stereo unspecified)	2%	3%
CN(C)CCNC(=O)C(=O)Nc1cccc(N2CCCS2(=O)=O)c1	3%	-5%
N#Cc1cccc(COc2cccc(C#N)c2)c1	131%[activator]	41%[activator]
COc1ccc(Nc2cc(C)c3c(O)cccc3n2)cc1	97%[activator]	-8%
FC(F)(F)C(Oc1nc(N2CCCCC2)nc(N2CCOCC2)n1)C(F)(F)F	6%	6%
Cc1ccc(CNC(=O)CSc2n[nH]c(N)n2)cc1F	3%	-3%
COc1ccc(CC(=O)N2CCC(NS(=O)(=O)c3ccc(C)cc3)CC2)cc1	-3%	77%[activator]
Cc1nc(-n2nc(C)c(Cl)c2C)sc1C(=O)N1CCCCCC1	5%	3%
O=C(Cn1cc(C(=O)c2ccccc2)c(=O)c2cc3c(cc21)OCCO3)Nc1ccc(F)c(F)c1	-10%	-3%
Cc1cc(C)cc(NC(=O)Cc2csc(C)n2)c1	-11%	-8%
Cc1ccc(OCCN(C)C(=O)c2cc3ccccc3oc2=O)cc1	35%[activator]	21%
COc1ccc2cc(C(=O)NC3CCN(Cc4ccccc4)C3)c(C)nc2c1 (stereo unspecified)	16%	-7%
COc1ccc(Br)cc1CNC(=O)CN1C(=O)CSc2ccc(S(=O)(=O)N3CCOCC3)cc21	-16%	34%[activator]
CC1(NC(=O)c2n[nH]c(=O)c3ccccc23)CCS(=O)(=O)C1 (stereo unspecified)	-4%	-10%
CC(=O)OCc1cnc(C)c2oc(=O)c(C(=O)Nc3ccc(F)cc3C)cc12	-7%	-3%
CCOc1ccc(C2C(C(=O)Nc3ccc(C)cc3C)=C(C)Nc3c(C(=O)Nc4ccc(C)cc4)cnn32)cc1OC (stereo unspecified)	-5%	1%
CCCCn1c(=O)c2ccccc2n(CC(=O)N(C)c2cccc(C)c2)c1=O	-8%	5%
COc1ccc(F)cc1CSc1nnc(C2CC2)n1Cc1ccccc1	28%	50%[activator]
COC(=O)C(C)(Cc1ccccc1)CC(C)(CC1(C)CC(C)(C(=O)OC)OC1=O)C(=O)OC (stereo unspecified)	7%	15%
CCCc1ccc(C(NC(=O)c2nn(C)c(=O)c3ccccc23)c2cccs2)cc1 (stereo unspecified)	6%	-9%
Cc1cccc(C(=O)Nc2sc3c(c2C(=O)N2CCCCC2)CCC(C)C3)c1 (stereo unspecified)	-8%	-9%
CN(Cc1ccsc1)C(=O)Cc1cccc(F)c1	38%[activator]	39%[activator]
CCCCc1nn2c(C)c(-c3ccc(OCC)cc3)nc2s1	110%[activator]	8%
CC(C)n1ncc2cc(NC(=O)c3cc(S(=O)(=O)N4CCCCC4)ccc3N3CCCC3)cnc21	-15%	1%
